# NS1 function inh: influenza NS1 inhibition; actives 0.4% (n = 270,000); Potency, µM (top dose mostly 46.1 µM), for inactives: at the highest dose activity, positive = more growth; S. cerevisiae slowed by influenza A NS1, growth recovery by OD600; AID 2326; also: actives are rising curves; nearly all actives have a fitted effect of over 50% in size
#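 S. cerevisiae expressing influenza A NS1, grown in glucose, washed, then diluted 1:100 into pH 6.0 -URA galactose medium with 23 nl compound. Growth recovery read as OD600; NS1-free strain serves as control.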
# RE007 growth inh: less growth of the S. pombe RE007 Vpr strain. S. pombe RE007 Vpr strain, BacTiter-Glo ATP luminescence, 24 h; control for the full effect not named in the record. Potency, µM (doses to about 92.2 µM), for the others: at the highest dose activity change, negative = less growth. actives 0.21% (n = 360,000); active = well fitted falling curve with a large enough effect; inconclusive = small, poorly fitted or top-dose-only effect; inactive = no such curve, though single readings can be large or run the other way;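 also: % is scaled to controls: 0 for no effect and ±100 for the full control effect; nearly all actives have a fitted effect of over 50% in size; the assay follows cell death caused by Vpr and the record does not say whether a fall means rescue or toxicity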
#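 Fission yeast RE007 carrying one integrated HIV-1 vpr copy, seeded at OD 0.01 in PMG+AL medium with 23 nL pinned compound. Grown 24 h at 30 degrees; viability read by BacTiter-Glo luminescence after 5 min.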
# SARS PLpro yeast: blocks SARS-CoV papain-like protease in a yeast assay | S. cerevisiae expressing SARS-CoV PLpro, growth rescue; control for the full effect not named in the record | Potency, µM (top dose mostly 32.9 µM), for the others: at the top dose activity, positive = growth rescue | actives 0.19% (n = 330,000) | AID 485353; also: 0% is about no effect; nearly all actives have a fitted effect of over 55% in size; growth read by luminescence after 48 h
# Cruzain inh noDet: inhibitors of Trypanosoma cruzi cruzain without detergent; purified cruzain, Z-FR-AMC fluorescence, no detergent; actives 2.3% (n = 200,000); Potency, µM, without a hit: max response, negative = inhibition, hits mostly inhibitors; P25779; active = well fitted curve in the direction sought with a large enough effect; inconclusive = small, poorly fitted or top-dose-only effect, or another doubt; inactive = no such curve, though single readings can be large; an effect the other way counts as inactive or inconclusive;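 also: plate controls were enzyme without inhibitor for no effect and buffer without enzyme for full effect; nearly all actives have a fitted effect of over 40% in size; top concentration of the series not given in the record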
# Target sequence (P25779 123-467 limits assumed): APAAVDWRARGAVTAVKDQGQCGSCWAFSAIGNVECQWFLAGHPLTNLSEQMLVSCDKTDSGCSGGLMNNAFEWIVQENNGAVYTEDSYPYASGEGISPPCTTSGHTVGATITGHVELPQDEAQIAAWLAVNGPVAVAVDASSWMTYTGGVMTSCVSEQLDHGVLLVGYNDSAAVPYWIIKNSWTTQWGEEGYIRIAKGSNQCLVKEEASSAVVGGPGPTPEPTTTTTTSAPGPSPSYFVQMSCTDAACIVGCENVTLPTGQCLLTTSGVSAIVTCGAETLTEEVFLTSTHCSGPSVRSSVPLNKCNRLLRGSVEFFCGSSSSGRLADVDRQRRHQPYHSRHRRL
#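 Purified cruzain at 1.5 nM, pre-incubated 15 min with compound at room temperature in 100 mM sodium acetate pH 5.5, 5 mM DTT, 0.00005% Triton X-100. Reaction started with 2 uM Z-FR-AMC; AMC fluorescence increase over 60 s gives rate.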
# Cruzain Triton: inhibitors of Trypanosoma cruzi cruzain with detergent. purified cruzain, Z-FR-AMC fluorescence, 0.01% Triton. Potency, µM, for the others: max response, negative = inhibition, hits mostly inhibitors. actives 0.43% (n = 200,000). AID 1478; active = well fitted curve in the direction sought with a large enough effect; inconclusive = small, poorly fitted or top-dose-only effect, or another doubt; inactive = no such curve, though single readings can be large; an effect the other way counts as inactive or inconclusive;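 also: plate controls were neutral wells for no effect and buffer without enzyme for full effect; nearly all actives have a fitted effect of over 40% in size; top concentration of the series not given in the record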
#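 Enzyme 1.5 nM, Z-FR-AMC 2 uM, NaOAc 100 mM pH 5.5, DTT 5 mM, Triton X-100 0.01%; 15 min RT compound preincubation; kinetic ex360/em450, 60 s delta.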
# Marburg entry inh: Marburg virus entry inhibition; Marburg virus pseudotyped entry inhibition, cell reporter; control for the full effect not named in the record; about a third of the inactives were read at about 46 µM; Potency, µM (titrated, usually from 37.8 µM), without a hit: at the top dose activity change, negative = inhibition, most hits filed as inhibitors; actives 1.8% (n = 300,000); AID 540276; active = well fitted inhibition curve with a large enough effect; inconclusive = small, poorly fitted or top-dose-only effect, or effect the other way; inactive = flat fitted curve, though single readings scatter; tested in HEK293 cells; about a fifth of its hits are not listed in these tables; also: % is scaled to controls: 0 for no effect and ±100 for the full control effect; luciferase read-out
# Lassa entry inh: inhibitors of Lassa virus binding or cell entry | Lassa virus pseudotype entry inhibition, cell reporter; control for the full effect not named in the record | Potency, µM (titrated, usually from 37.9 µM), without a hit: at the highest dose activity change, negative = inhibition, hits mostly inhibitors | actives 1.2% (n = 300,000); active means well fitted inhibition curve with a large enough effect; inconclusive means small, poorly fitted or top-dose-only effect, or effect the other way; inactive means flat fitted curve, though single readings scatter; tested in HEK293 cells; also: % is scaled to controls: 0 for no effect and ±100 for the full control effect; nearly all actives have a fitted effect of over 50% in size; luciferase read-out
# StopGo reporter: FMDV 2A StopGo reporter, luciferase signal; human cells with a luciferase reporter of 2A StopGo recoding; control for the full effect not named in the record; Potency, µM (doses to about 57.9 µM), for the others: at the highest dose signal change, negative = less light; actives 1.2% (n = 410,000); AID 1159524; active = well fitted falling curve with a large enough effect; inconclusive = small, poorly fitted or top-dose-only effect; inactive = no such curve, though single readings can be large or run the other way; tested in HEK293T cells; also: % is scaled to controls: 0 for no effect and ±100 for the full control effect; nearly all actives have a fitted effect of over 45% in size; luciferase light after 4 h
# An asterisk follows results filed as active; ? = inconclusive; . = no result given; & = joins results of further samples; [ ] = another dose, or the depositor's remark. Unless noted, calls follow the shape of the dose curve; as a rule, active means well fitted rising curve with a large enough effect; inconclusive means small, poorly fitted or top-dose-only effect; inactive means no such curve, though single readings can be large or run the other way. Potency is read from the fitted curve at half-maximal effect. Rows are unselected; any-hit rate near 4.7%.
molecule,Marburg entry inh,StopGo reporter,Cruzain Triton,Cruzain inh noDet,Lassa entry inh,NS1 function inh,SARS PLpro yeast,RE007 growth inh
Cc1oc(-c2cccc(C(F)(F)F)c2)nc1CN1CCN(c2ccccn2)CC1,-28%[46.1 µM],-17%,.,.,-10%,-3%,-2%,-10%
CCOC(=O)c1cc(CC)sc1NC(=O)c1cc(OCC)c(OCC)c(OCC)c1,-14%,21%,-8.2%,21%,-29%,29%,1%,6%
CCSc1nc(C)nc2sc(C)c(C)c12,.,31%[activator],.,.,.,3%,-1%,8%
Oc1ccc(N=Cc2c(O)ccc3ccccc23)cc1,.,-20%,.,.,.,-46%,-4%,-9%
COc1cccc(CN2C(=NC(=O)C3CC3)SC3CS(=O)(=O)CC32)c1 (stereo not given),.,-18%,.,.,.,8%,?,11%
CCN1C(=O)/C(=C2/C=Cc3ccccc3N2C)OC1=S,?,28%,1.6%,-14%,-12%,-111%,-12%,5%
Cc1cccc(NC(=O)c2ccc(NCC3CCCO3)c([N+](=O)[O-])c2)c1 (stereo not given),29%,-3%,-9.0%,-12%,4%,3%,18%,-18%
CN1CCN(c2ccc([N+](=O)[O-])c(Sc3ccccn3)c2)CC1,15%,-12%,.,.,5%,1%,1%,-6%
O=S(=O)(c1ccc(Cl)cc1)c1nc(-c2ccccc2)oc1N1CCN(c2ccccc2)CC1,?,-21%,-1.8%,-2%,2%[46.1 µM],.,.,.
CCOc1cc(C2CC(=O)Nc3cc4c(cc32)OCCO4)ccc1O (stereo not given),?,-20%,-2.2%,-14%,-28%[46.1 µM],.,.,.
O=C(O)CCN1C(=O)/C(=C/c2ccc(-c3nc4ccccc4s3)o2)SC1=S,?,6%,-0.9%,?,17%,11%,-4%,6%
COc1ccc(C(C)C)cc1S(=O)(=O)NCCc1c(C)[nH]c2ccc(C)cc12,?,47%[activator],-12%,-1%,-28%[46.1 µM],.,.,.
COc1ccccc1NS(=O)(=O)/C=C/c1ccccc1,-3%,59%[activator],0.3%,-1%,7%,-13%,-9%,2%
COC(=O)CCSc1cc([N+](=O)[O-])cc2c1c(C1OCCO1)nn2-c1ccccc1,?,0%,-6.7%,?,-1%,-19%,11%,4%
COc1ccc(C(=O)C(C)(C)NO)cc1,?,-5%,-1.9%,11%,17%,-84%,-2%,-14%
CCN(CC)c1ccc(/C=N\NC(N)=O)cc1,13%,-11%,-1.0%,2%,1%,10%,-19%,-5%
Cc1nc(C)c(C(=O)Nc2ccc(C)c(F)c2)o1,8%,20%,-0.2%,-3%,?,-9%,-6%,-9%
CC(C)(Oc1ccc(Cl)cc1)C(=O)NCc1n[nH]c(=O)c2ccccc12,-5%[46.1 µM],-25%,.,.,2%,.,1%,2%
CC1CN(c2cc(-c3ccccc3)c3ccccc3n2)CC(C)O1 (stereo not given),-20%,-22%,-5.1%,15%,?,-22%,-24%,-14%
CCCc1nc([N+](=O)[O-])c(S(=O)(=O)c2ccccc2)n1CC(C)C,12µM*,?,-2.6%,2%,?,-4%,?,3%
CN(C)/C=C1\C(=O)Nc2ccccc21,29%,-14%,-8.3%,0%,2%,6%,-12%,-14%
COc1ccc(OCCOCC(O)CN2CCOCC2)cc1 (stereo not given),-1%,2%,3.1%,-8%,11%,-1%,0%,38%
CC(=O)C1=C(C)N(Cc2ccccc2)C(=O)N[C@H]1CCc1ccccc1,?,?,1.7%&-0.6%,?,12µM*,14%,7%,-9%
COc1cc(OC)cc(-c2nc3nc(C)c(CCC(=O)NCc4ccco4)c(C)n3n2)c1,-9%,-17%,2.4%,?,-3%,-19%,-1%,-5%
O=C(CSc1oc(-c2ccco2)nc1S(=O)(=O)c1ccc(Cl)cc1)c1ccccc1,?,-24%,1.9%,10%,-30%[46.1 µM],.,.,.
O=C(O)c1cccc(Cl)n1,.,54%[activator],.,.,.,-3%,-1%,-8%
Cc1ccc(C2CC(c3cccc(Cl)c3)n3nc(N)nc3N2)cc1 (stereo not given),4%,-9%,0.6%,-4%,.,-11%,0%,0%
Cc1cccc2c(C(=O)N3CCN(c4ccccn4)CC3)cc(-c3cccc(Br)c3)nc12,.,25µM*,.,.,.,-34%,-10%,5%
O=C(CC1C(=O)NCCN1Cc1ccc(Cl)c(F)c1)NC1CCC1 (stereo not given),1%[46.1 µM],-10%,.,.,19%[46.1 µM],15%,0%,2%
Cc1cccc(N(CC(=O)NCCSc2ccc(Cl)cc2)S(=O)(=O)c2ccccc2)c1C,?,-11%,-5.8%,-4%,?,.,.,.
CC1CCN(C(c2ccccc2)c2nnnn2C(C)(C)C)CC1 (stereo not given),-16%,-20%,3.6%,2%,20%,-5%,2%,4%
Cc1ccc(N/C(=N/S(=O)(=O)c2cccs2)c2ccccc2)c(C)c1,?,29%,.,.,-17%,.,0%,32%
COc1cccc(CNC(=O)COC(=O)c2c(C)nn(-c3ccccc3)c2Cl)c1,-20%,-21%,.,.,?,.,-2%,26%
O=C(Cc1ccccc1)NNC1CC(=O)N(c2ccc(Oc3ccccc3)cc2)C1=O (stereo not given),3%[46.1 µM],-27%,.,.,8%[46.1 µM],3%,-2%,-12%
CN(Cc1nc(Cc2ccccc2F)no1)[C@@H]1CS(=O)(=O)C[C@H]1O,.,10%,.,.,.,0%,1%,-4%
CCOC(=O)Cn1ccc(NC(=O)c2ccc3c(c2)OCO3)n1,.,8%,.,.,.,-17%,-2%,-6%
CC(C)(C)OC(=O)N[C@@H](Cc1ccccc1)C(=O)NCC1CCC(C(=O)N[C@@H](CC(=O)O)C(=O)O)CC1 (stereo not given in full),.,-9%,.,.,.,9%,4%,-9%
CCOC(=O)C1CCCN(c2nc3ccccc3nc2C(C#N)C(=O)OCC)C1 (stereo not given),-15%,0%,-3.6%,13%,-19%,-31%,-1%,-6%
Cc1[nH]c2ccc(-c3n[nH]c(=S)n3-c3ccc(Br)cc3)cc2c1C,18%[46.1 µM],?,.,.,?,7%,-1%,13%
CC1C(=O)C(C)C(c2ccc3c(c2)OCO3)NC1c1ccc2c(c1)OCO2 (stereo not given),-7%,-28%,0.2%,-1%,-18%,-44%,-4%,0%
COc1cccc2cc(C(C)N(CCCN3CCOCC3)C(=S)Nc3cc(C)cc(C)c3)oc12 (stereo not given),?,-20%,.,.,-21%[46.1 µM],.,2%,-12%
COc1ccccc1NC(CC(=O)c1ccccc1)C(=O)OCC(=O)c1ccc(C)cc1 (stereo not given),-7%,40%[activator],-1.3%,-13%,-18%,-6%,11%,6%
CCCCC(=O)Nc1ccc(C(=O)NNC(=O)CCc2ccccc2)cc1,-1%,.,5.7%,?,2%,-3%,0%,4%
COC(=O)c1ccc(NC(=S)N2CCN(Cc3ccccc3Cl)CC2)cc1,.,-6%,.,.,.,-7%,-1%,-6%
O=C(CNC(=O)c1[nH]cnc1C(=O)NC(c1ccccc1)c1ccccc1)OCc1ccccc1,.,-16%,.,.,.,?,7%,7%
c1ccc(-n2c(-c3ccncc3)nnc2-c2cccs2)cc1,-12%,-10%,-0.2%,4%,-8%,-2%,7%,3%
CCOC(=O)c1oc2ccccc2c1NC(=O)c1ccc(S(=O)(=O)N(C)C)cc1,-16%,-21%,-6.3%,-11%,-11%,-6%,-4%,10%
Cc1cc(C(=O)N2CCc3ccccc3C2)c(C)o1,1%,28%,.,.,12%,.,.,-4%
CCN(CC(=O)Nc1c(F)cccc1F)C(=O)CCC(=O)c1ccc(C)cc1,-16%,17%,.,.,15%[46.1 µM],.,-6%,1%
Cc1ccccc1CC1(CO)CCCN(C(=O)c2cc(-c3ccccc3)no2)C1 (stereo not given),.,32%[activator],.,.,.,-1%,1%,3%
COc1ccc(CCNC(=O)CSc2nnc(-c3ccc(F)cc3)c3ccccc23)cc1OC,?,?,-3.8%,?,-10%,-7%,-4%,5%
CCCCc1cc(=O)oc2c(CN3CCCC3)c(O)c(Cl)cc12,12%,-10%,28µM*,?,-4%,8%,7%,7%
O=C(NCc1ccco1)c1cc(S(=O)(=O)N2CCOCC2)ccc1Br,16%,-4%,.,.,2%,11%,20%,-4%
CCOC(=O)c1cccc(NS(=O)(=O)c2ccc(-c3coc(C)n3)cc2)c1,.,28%,-8.7%,0%,-11%[46.1 µM],.,.,.
COc1ccc(/C=C/C(=O)NC2CCS(=O)(=O)C2)cc1 (stereo not given),12%,13%,.,.,23%,.,-2%,2%
COC(=O)CSc1nc(-c2ccccc2)nc2ccc(F)cc12,-16%,7%,-3.1%,-2%,29%,-30%,-12%,-21%[3.69 µM]
NC(=O)CC(NC(=O)c1cccc(Br)c1)c1ccc(N2CCCCCC2)c([N+](=O)[O-])c1 (stereo not given),.,-24%,.,.,.,25%,-3%,-4%
CN1CCN(C(=O)c2cnn(-c3ccccc3)c2NC(=O)c2ccc([N+](=O)[O-])cc2)CC1,12%[46.1 µM],-1%,.,.,?,10%,1%,3%
CC1=NN(c2nc3ccccc3[nH]2)C(=O)/C1=C/N(C)C,?,?,.,.,?,.,-21%,7.9µM*
O=c1oc2cc(O)ccc2c2oc3cc(O)ccc3c12,12%,0%,-7.2%,-17%,-17%,-8%,-6%,-1%
Cc1cc(C)c(OCCNCc2ccccc2)c(C)c1,?,-10%,.,.,?,-10%,-2%,5%
COc1ccc(OC)c(S(=O)(=O)Nc2cc3c(C(C)=O)c(C)oc3c3ccccc23)c1,?,29%,-5.7%,-8%,7%[46.1 µM],.,.,.
